# Assay outcomes from PubChem BioAssay.
# miR-21 reporter: qHTS Assay for Modulators of miRNAs and/orActivators of miR-21. Potency, µM (series often up to 38.3 µM), for inactives: at the top dose reporter change, positive = more light. HeLa miR-21 FLuc reporter, luciferase, 48 h. AID 2288, 2010. 340,000 tested, under 10 active; active = well fitted rising curve with a large enough effect; inconclusive = small, poorly fitted or top-dose-only effect; inactive = no such curve, though single readings can be large or run the other way;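 further: % of control where 0% means no effect; miR-21 action dims this reporter so a rising signal means less miR-21 action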
#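 Luminescence from a firefly luciferase reporter carrying a miR-21 binding site downstream, stably expressed under a CMV promoter in HeLa cells that make miR-21 endogenously, reports miRNA modulation after 48 h compound exposure up to approximately 40uM final.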
# Rango complex inh: qHTS Assay for Inhibitors of Rango (Ran-regulated importin-beta cargo) - Importin beta complex formation; AID 540263, 2011; Rango CFP/YFP FRET sensor + importin beta, 45 min; 340,000 compounds, 0.031% hits; Potency, µM (doses to about 92.2 µM), without a hit: at the highest dose inhibition of complex formation; active = rising FRET ratio curve, often small or poorly fitted; inconclusive = mostly compound fluorescence or quenching in the first reads; inactive = flat curves in all reads;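 further: potency means the concentration at half of the fitted maximal effect; 0% = DMSO wells and 100% = buffer wells lacking importin beta; nearly all actives have a fitted effect of over 15% in size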
#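 Inhibition scored from the CFP 486 nm/YFP 530 nm FRET ratio 45 min after adding 0.125 microM importin beta to 50 nM Rango biosensor preincubated 5 min with compound (room temperature, PBS with DTT, Tween-20, BSA). No-importin wells as positive control.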
# GLA inh pH 4.5: qHTS Assay for Inhibitors of Human alpha-Galactosidase at pH 4.5 | Alpha-galactosidase A (Homo sapiens), P06280 | purified enzyme, 4-MU-alpha-Gal fluorescence, pH 4.5 | activity change, negative = inhibition, % at 105 µM | 230,000 tested, under 10 active; inconclusive = small, poorly fitted or top-dose-only inhibition, or a rising curve; inactive = flat fitted curve, though single readings scatter; no compound was filed as active;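 further: 0% = full activity with enzyme and -100% = basal without enzyme; dose as in the result columns while the protocol names 77 µM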
# Target sequence (P06280 whole entry, looked up): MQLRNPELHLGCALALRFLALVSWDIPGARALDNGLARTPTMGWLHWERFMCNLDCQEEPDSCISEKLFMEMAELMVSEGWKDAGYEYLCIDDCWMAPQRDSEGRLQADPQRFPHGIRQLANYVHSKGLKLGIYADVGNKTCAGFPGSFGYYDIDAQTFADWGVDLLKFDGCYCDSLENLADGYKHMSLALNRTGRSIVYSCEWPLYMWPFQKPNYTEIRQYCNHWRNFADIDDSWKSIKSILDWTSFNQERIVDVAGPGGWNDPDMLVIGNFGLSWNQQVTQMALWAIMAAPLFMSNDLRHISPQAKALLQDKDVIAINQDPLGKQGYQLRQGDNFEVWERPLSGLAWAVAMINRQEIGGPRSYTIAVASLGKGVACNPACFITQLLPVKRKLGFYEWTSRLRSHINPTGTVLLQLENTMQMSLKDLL
# Rango release inh: qHTS Assay for Inhibitors of RanGTP induced Rango (Ran-regulated importin-beta cargo) - Importin beta complex dissociation. Snurportin-1 (Homo sapiens) + GTP-binding nuclear protein Ran (Homo sapiens) + Importin …. Biochemical FRET Rango-importin beta, RanGTP-induced dissociation. Potency, µM (highest dose often 46.1 µM), inactives show at the highest dose activity change, negative = inhibition. 340,000 compounds, 0.071% hits; active means falling FRET ratio curve, often poorly fitted, with flat reads before Ran was added; inconclusive means other falling curves, or compound fluorescence or quenching; inactive means flat or rising ratio curve;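 further: potency means the concentration at half of the fitted maximal effect; % of control where 0% means no effect; nearly all actives have a fitted effect of over 45% in size; -100% = wells without RanGTP and RCC1; the record marks most hits as doubtful in a second field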
#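 Recombinant Rango FRET biosensor (EYFP–snurportin 1 IBB–cerulean CFP10) at 0.1 uM premixed with 0.25 uM importin beta in PBS, 1 mM DTT, 0.02% Tween-20, 0.1% BSA. Compound added 5 min; RanGTP-RCC1 (0.6 uM Ran, 2 mM GTP, 0.2 uM RCC1) then triggers release, read at 45 min.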
# * marks the source's active call; other numbers are inactive results; ? = inconclusive; . = not tested or not shown.
Rango complex inh,miR-21 reporter,GLA inh pH 4.5,Rango release inh,structure
-0.7%,1%,-5,0%,S=C(NCC1CCCO1)n1nnc2ccccc21 (configuration not stated)
-1.4%,.,.,-5%,CCN(CC(=O)NCc1ccc(Cl)cc1)C(=O)c1c(C)noc1C
-1.8%,-9%,5,-4%,O=C(NC1CCCCCC1)C1CCCN1S(=O)(=O)c1cccc2cccnc12 (configuration not stated)
-6.2%,?,1,-14%,Cc1sc(NC(=O)c2ccco2)nc1-c1ccc2c(c1)CC(C)N2C(=O)C1CC1 (configuration not stated)
-0.5%,-23%,-25,9%,Nc1cc(=O)[nH]c(SCc2csc(-c3ccccc3)n2)n1
-0.7%,-2%,2,9%,Cc1cc(C)nc(N/N=C/c2c(C)oc3ccccc23)n1
-0.1%,-38%,.,-12%,O=C(NCC(=O)N1CCCCCC1)c1ccc(Cl)cc1
1.5%,-7%,.,0%,COc1ccccc1NC(=O)C1CCN(S(=O)(=O)c2cccc3nonc23)CC1
2.5%,0%,.,-18%,CCCC(=O)Nc1ccc2c(c1)nc(CN1CCN(C(=O)OCC)CC1)n2C
-1.5%,-7%,0,-13%,Cc1cc(C)c(-n2[nH]nnc2=S)c(C)c1
5.7%,-2%,-11,31%,CCCc1cc(C(=O)Nc2c(C)n(C)n(-c3ccccc3)c2=O)no1
-4.5%,-7%,-7,7%,O=C(Nc1ccccc1)N(Cc1cccnc1)Cc1ccco1
-1.6%,-5%,-4,-17%,COc1ccc(N(C)C(=O)c2ccc3c(c2)nnn3C)cc1
-0.3%,4%,-3,12%,CCOC(=O)c1ccc(CNC(=O)CSc2nnc(-c3ccncc3)o2)cc1
3.9%,0%,5,0%,CCOC(=O)C(O)(C1C(=O)CC(C)(C)CC1=O)C(F)(F)F (configuration not stated)

# Reprinted at random: five entries already listed, in no set order.
Rango complex inh,miR-21 reporter,GLA inh pH 4.5,Rango release inh,structure
-1.6%,-5%,-4,-17%,COc1ccc(N(C)C(=O)c2ccc3c(c2)nnn3C)cc1
-6.2%,?,1,-14%,Cc1sc(NC(=O)c2ccco2)nc1-c1ccc2c(c1)CC(C)N2C(=O)C1CC1 (configuration not stated)
-0.3%,4%,-3,12%,CCOC(=O)c1ccc(CNC(=O)CSc2nnc(-c3ccncc3)o2)cc1
3.9%,0%,5,0%,CCOC(=O)C(O)(C1C(=O)CC(C)(C)CC1=O)C(F)(F)F (configuration not stated)
-0.7%,1%,-5,0%,S=C(NCC1CCCO1)n1nnc2ccccc21 (configuration not stated)

# New compounds follow:
Rango complex inh,miR-21 reporter,GLA inh pH 4.5,Rango release inh,structure
6.1%,0%,6,11%,Cc1ccccc1-c1nnn(CC(=O)NCc2ccc3c(c2)OCO3)n1
-0.5%,11%,-1,0%,O=C(CCCc1nc2ccccc2s1)NC1CCOC1=O (configuration not stated)
1.1%,-5%,-1,19%,O=S1(=O)CC(O)C(Nc2ccccc2Cl)C1 (configuration not stated)
5.5%,0%,4,0%,CC(C)Cc1cc(C(=O)N2CCC(N3CCC(C(=O)N4CCOCC4)CC3)CC2)n[nH]1
?,-16%,3,?,Cc1ccccc1-n1c(=O)n(CCc2ccccc2)c(=O)c2[nH]cnc21
?,-14%,-2,16%,Cc1nnc(SCC(=O)N2CCN(Cc3ccccc3)CC2)s1
-1.1%,-9%,0,-11%,COC(=O)C1C(=O)C2=C(CC1C)NC(C)=C(C(=O)OC(C)C)C2c1ccc(C)o1 (configuration not stated)
?,-1%,0,8%,Cc1c(C(=O)Nc2ccc(C(=O)O)cc2)cnn1C
5.4%,-11%,0,-20%,COc1ccc(CCNc2nc(=S)[nH]c3cc(OC)c(OC)cc23)cc1OC
-1.1%,0%,.,16%,Cc1ccc(-c2csc3ncnc(N4CCN(c5ccccc5O)CC4)c23)cc1
5.4%,-2%,7,10%,CC(=O)Nc1c(C(=O)c2ccc(F)cc2)oc2ccccc12
-0.6%,-13%,-9,1%,Cc1ccc(NC(=O)CN(C)S(=O)(=O)c2cnc[nH]2)cc1C
-1.3%,-13%,-9,-11%,COc1ccc(-c2nc(CN3CCC(c4ccccc4)CC3)c(C)o2)cc1OC
2.9%,-13%,.,2%,COc1ccc(S(N)(=O)=O)cc1C(=O)OCC1CCCCC1
?,-8%,6,?,Cc1ccc2nc(NCC(=O)NN)nc(-c3ccccc3)c2c1

# An excerpt of these results, with two lines to a compound.
# Every second line gives: Rango complex inh	miR-21 reporter	GLA inh pH 4.5	Rango release inh
> COc1ccc(CCNc2nc(=S)[nH]c3cc(OC)c(OC)cc23)cc1OC
→ 5.4%	-11%	0	-20%
> O=C(CCCc1nc2ccccc2s1)NC1CCOC1=O (configuration not stated)
→ -0.5%	11%	-1	0%

# The results go on.
Rango complex inh,miR-21 reporter,GLA inh pH 4.5,Rango release inh,structure
0.4%,-2%,1,8%,Cc1ccc(N2C(=O)C3C4C=CC(C4)C3C2=O)cc1 (configuration not stated)
-5.6%,?,-3,44%,Cc1cccc(OCc2n(CC(=O)OC3CC(C)CCC3C(C)C)c3ccccc3[n+]2C)c1 (configuration not stated)
2.7%,-1%,-16,-9%,Cc1cccc(C)c1NC(=S)NCc1ccccc1
-1.9%,-2%,13,-1%,Nc1nc(SCC(=O)NCc2ccccc2)[nH]c(=O)c1NC(=O)c1ccccc1F
0.5%,4%,.,0%,COc1ccc(S(=O)(=O)N2CCc3ccccc32)cc1OC
-3.5%,-3%,6,-4%,Cc1ccc(S(=O)(=O)N(CC(=O)O)Cc2ccccc2)cc1
0.1%,-7%,-6,1%,O=C(c1csc2c1CCCC2)N1CCCCC1
0.1%,.,.,14%,CSCCC(NC(=O)/C(=C/c1ccco1)NC(=O)c1ccco1)C(=O)O (configuration not stated)
-2.6%,5%,.,-10%,Cc1ccccc1CC(=O)NC1CCN(Cc2ccccc2)CC1
-0.5%,-5%,-2,4%,CCCCNC(=O)CCn1c(=O)c2ccccc2n(CC(=O)N2CC(C)CC(C)C2)c1=O (configuration not stated)
5.2%,0%,.,20%,CCn1cc(CN2CCC(C(=O)Nc3ccc(Oc4cccnc4)cc3)CC2)cn1
?,-16%,2,?,CSc1cnc2c(N)nc(N(C)C)nc2n1
3.4%,-1%,-10,0%,Cc1ccc(N2CC(=O)N(NC(=O)CN3CCN(c4ccccc4)CC3)CC2=O)cc1
-0.3%,.,.,-9%,O=C1C=C(c2cc(C(F)(F)F)cc(C(F)(F)F)c2)C[C@@H](c2ccc(Cl)cc2)C1
-0.6%,-8%,0,6%,COc1cc2[nH]c3c(=O)n(CCN4CCCCC4)cnc3c2cc1OC
-1.2%,-27%,-13,11%,O=[N+]([O-])c1ccccc1Nc1ccc(O)cc1
2.5%,-30%,-1,13%,O=C(NC(=S)Nc1ccccc1C(=O)O)c1ccc2ccccc2c1
0.4%,-8%,.,10%,CN(C(=O)c1cc(COc2ccc(F)cc2Cl)on1)C1CCCc2ccccc21 (configuration not stated)
-0.1%,-5%,.,-1%,CN(C)CCCN(C(=O)c1ccc(S(=O)(=O)N2CCc3ccccc32)cc1)c1nc2ccc(Cl)cc2s1
3.4%,.,.,-1%,CSc1nc(N)nc2c1ncn2Cc1ccccc1
-2.9%,17%,-4,1%,COc1ccc(NC(=S)Nc2nc(CC(=O)Nc3ccccc3OC)cs2)cc1
0.2%,3%,5,16%,COc1cc(CNCc2c[nH]c3ccccc23)cc(OC)c1
0.7%,-26%,-2,20%,NC(=O)CSc1nc(C23CC4CC(CC(C4)C2)C3)nc2ccccc12
1.2%,5%,.,0%,O=C(O)C1=C(Nc2ccccc2)OCC1=O
.,-5%,-1,.,C/C(=N\Nc1ccc(F)cc1F)c1ccc(F)cc1
-2.7%,6%,5,?,CN(Cc1ccccc1)S(=O)(=O)c1ccc(Cl)c(C(=O)NCCc2ccccn2)c1
10%,?,-13,-2%,COC(=O)c1ccc2c(c1)C(C)(C)C(/C=C/c1ccc(O)cc1)=[N+]2C
0.4%,-6%,-12,-20%,Cc1ccccc1-n1c(Cn2c(=O)sc3ccccc32)nnc1SC(C)C
-3.5%,-5%,-18,34%,COC(=O)CCCSc1nccn1-c1ccccc1
-0.1%,.,.,6%,Cc1cc(C)cc(OCC(=O)Nc2cccc(S(=O)(=O)NC3=NCCC3)c2)c1
5.6%,-73%,4,-16%,CC(C)(C)c1cc(NC(=O)c2cccc([N+](=O)[O-])c2)no1
-1.7%,0%,.,26%,CC1CCC(NC(=O)CCS(=O)(=O)c2ccc3c(c2)NC(=O)CO3)CC1 (configuration not stated)
0.4%,0%,.,-3%,CCOc1ccc(-c2nc(S(=O)(=O)c3ccccc3)c(N3CCC(C(N)=O)CC3)o2)cc1
-3.6%,-11%,5,10%,CCOC(=O)C1(Cc2ccc(OC)cc2)CCN(C(=O)CCN2CCCC2=O)CC1
6.7%,9%,8,-17%,CCOC(=O)C1=C(COC(=O)C2(C)CC2(Cl)Cl)NC(=O)NC1c1ccccc1 (configuration not stated)
9.2%,-6%,0,-10%,O=C(c1ccc([N+](=O)[O-])cc1)N1CCN(Cc2ccccc2)CC1
4.3%,-7%,0,-9%,CCOC(=O)C1CCN(Cc2ccc(OC)cc2OC)CC1
-1.1%,1%,.,4%,O=C(Nc1ccccc1Oc1cccnc1)C1CCCN(Cc2cccc(Cl)c2)C1 (configuration not stated)
-0.5%,-47%,-1,14%,O=C(NC1CCCCCC1)c1ccc(OCC2CCCO2)cc1 (configuration not stated)
0.1%,-3%,-3,-13%,CCOc1ccccc1C(=O)NCC(=O)OCC(=O)NCCc1ccc(S(N)(=O)=O)cc1
?,1%,1,1%,CCN1CCc2c(OCC(=O)N3CCCc4ccccc43)cccc2C1=O
-0.6%,10%,-1,-12%,Cc1ccc(C)c(NS(=O)(=O)c2cc(C(=O)NCCC3=CCCCC3)ccc2C)c1
?,-7%,-5,?,Cc1oc(C)c2c(=O)ccc3c(c12)OC(N)=C(C#N)C3c1ccccc1 (configuration not stated)
?,1%,.,-23%,CCCCn1c(-c2ccc(Cl)c(Cl)c2)nc2cc3[nH]c(=O)c(C(C)C)nc3cc21
-2.2%,.,.,-2%,COc1cccc(/C=C/C(=O)N(C)CC(=O)Nc2ccc(Cl)c(C(F)(F)F)c2)c1
-4.3%,-1%,-2,20%,OC[C@@H](O)C1OC2NC(=S)OC2C1O (some centres not stated)
5.3%,.,.,15%,Clc1cc(Cl)cc(C2=NC(Cc3ccccc3)CO2)c1 (configuration not stated)
1.3%,-1%,.,0%,CCOc1ccc(CC(=O)N2CCC3(CC2)NCCc2[nH]cnc23)cc1
?,8%,-10,?,CCN1CCc2c(sc(NC(=O)Nc3ccc(Cl)c(Cl)c3)c2C(N)=O)C1
-0.1%,-54%,-3,-19%,CCOC(=O)c1sc(=NC(=O)c2ccc(C)cc2)n(C)c1C
.,-23%,-3,.,COc1ccc(NCc2ccc(OC)c(OC)c2)cc1
-0.4%,5%,7,-1%,Cc1cc(C)nc(N2CCCC(C(=O)Nc3nnc(C)s3)C2)n1 (configuration not stated)
0.0%,0%,5,1%,CCOC(=O)c1c(C)[nH]c(C(=O)OCC(=O)Nc2ccc(OCC)cc2)c1C

# Quoted from the listing:
# Under miR-21 reporter, `COc1cc(CNCc2c[nH]c3ccccc23)cc(OC)c1` is entered as 3%
# Under Rango release inh, `CCCCn1c(-c2ccc(Cl)c(Cl)c2)nc2cc3[nH]c(=O)c(C(C)C)nc3cc21` is entered as -23%
# Under Rango release inh, `O=C(CCCc1nc2ccccc2s1)NC1CCOC1=O` (configuration not stated) is entered as 0%
# Under Rango complex inh, `O=C(NC1CCCCCC1)c1ccc(OCC2CCCO2)cc1` (configuration not stated) is entered as -0.5%

# These rows are one share of the data; count on the stated rates, not on these rows.
